Screening data deposited in PubChem BioAssay by several laboratories.
PABP FP inh: PABP poly(A) RNA binding inhibitors, primary screen, biochemical, fluorescence polarization, uHTS | Polyadenylate-binding protein 1 (Homo sapiens), P11940 | inhibition, % at 35 µM | actives 1% (n = 290,000);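 active means 50% or more with normal probe brightness, or confirmed in later tests; about a fifth of its hits are not listed in these tables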;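 further: calls also rest on retests at 20 µM and on dose response follow-up; controls were probe without protein and protein plus probe with vehicle; some compounds called inactive have numbers as strong as hits; many hits fall short of the cut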
Target sequence (P11940 whole entry, looked up): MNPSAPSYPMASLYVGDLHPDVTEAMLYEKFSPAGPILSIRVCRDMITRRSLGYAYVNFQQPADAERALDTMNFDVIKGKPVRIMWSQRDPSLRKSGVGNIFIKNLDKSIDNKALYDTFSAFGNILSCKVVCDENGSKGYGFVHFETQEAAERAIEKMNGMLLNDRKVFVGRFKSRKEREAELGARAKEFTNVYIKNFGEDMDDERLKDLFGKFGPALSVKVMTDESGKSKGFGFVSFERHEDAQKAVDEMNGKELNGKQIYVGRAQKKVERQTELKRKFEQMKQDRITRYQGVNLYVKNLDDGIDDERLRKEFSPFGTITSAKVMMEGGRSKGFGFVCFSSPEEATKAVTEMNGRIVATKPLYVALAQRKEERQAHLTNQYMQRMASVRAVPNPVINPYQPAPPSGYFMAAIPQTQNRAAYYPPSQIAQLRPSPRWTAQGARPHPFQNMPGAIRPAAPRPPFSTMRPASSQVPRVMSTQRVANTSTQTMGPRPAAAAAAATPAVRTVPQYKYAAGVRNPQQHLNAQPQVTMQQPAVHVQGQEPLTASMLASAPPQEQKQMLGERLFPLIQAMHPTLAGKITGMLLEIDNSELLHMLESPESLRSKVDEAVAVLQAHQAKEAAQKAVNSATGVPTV
eIF4H FP inh: human eIF4H binding inhibitors, primary screen, translation initiation inhibitor project, biochemical, uHTS, fluorescence polarization. Eukaryotic translation initiation factor 4H (Homo sapiens), Q15056. actives 0.94% (n = 290,000). AID 2012, 2009. eIF4H fluorescence polarization binding assay. inhibition, % at 35 µM;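 active means 50% or more with normal probe brightness, or confirmed in later tests; about a fifth of its hits are not listed in these tables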;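 further: calls also rest on retests at 20 µM and on dose response follow-up; 0% = protein and probe with vehicle and 100% = probe without protein; strong numbers were not always called active; many hits fall short of the cut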
CSC inhib: cancer stem cell viability inhibitors, primary screen, luminescence; cancer stem cell-like cells viability; inhibition, % at 7.5 µM; actives 1.1% (n = 300,000); AID 2717, 2010;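 active means mean at 75% or more and at least half the replicates too; tested in HMLE shEcad cells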;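 further: 0% = median of negative and 100% = median of positive control wells; the first replicate is given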
MT1-MMP act inh: blockers of MT1-MMP proenzyme processing, primary screen, HT1080 RFP-PRO-GFP cells, GFP/RFP fluorescence; actives 0.061% (n = 360,000); GFP/RFP ratio change, % at 20 µM; GFP/RFP ratio fluorescence, overnight; percent of plate control window, DMSO zero; Matrix metalloproteinase-14 (Homo sapiens), P50281; AID 651647, 2012;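 active means GFP/RFP ratio change of at least 30% with cell ATP level not reduced by more than half and red fluorescence within 50% of control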; further: strong numbers were not always called active
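Assay system: HT1080 RFP-PRO-GFP cells | Dosing: 20 µM single dose, 1% DMSO | Incubation: Cells overnight before dosing, compound overnight, 37 °C, 5% CO2 | Evaluation: GFP/RFP fluorescence ratio | Control set: DMSO-only wells and HT1080 RFP-L50D-GFP cell wells as references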
HIV Env fusion: inhibitors of HIV-1 Env-driven cell-cell fusion, primary screen, HeLa-JRFL effector, CEM21 target cells, luciferase. AID 651610, 2012. actives 1.1% (n = 360,000). inhibition, % at 12.3 µM;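 active means mean replicate inhibition score of at least 50 and every replicate individually at or above 50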;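 further: 0% = plate neutral controls and 100% = maraviroc near 300 nM; one replicate is shown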
Yeast UUG start: modulators of yeast start codon fidelity, primary screen, whole organism, S. cerevisiae, single point, plate reader; S. cerevisiae UUG-firefly luciferase reporter, luminescence/redox ratio; activity score, % at 18.7 µM; actives 0.13% (n = 350,000); AID 602363, 2012;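 active means replicate mean at a twofold rise or more, about +100% in these data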;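 further: firefly luciferase made from a UUG start codon reports start codon fidelity; reporter light over untreated wells divided by growth signal over untreated wells; some hits fall short of that in this replicate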
Rce1 inh: yeast Rce1p protease inhibitors, primary screen, biochemical, fluorescence, cell-free homogeneous. yeast membranes, quenched prenylated peptide cleavage fluorescence. calls only. actives 0.27% (n = 290,000);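 active means fall in fluorescence gain of 50% or more versus controls, with final raw signal at or below 3038400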;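 further: plate controls were neutral control wells for no effect and wells lacking membranes for full effect; tested at 10 µM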
eIF4H FP inh retest: further read-out of eIF4H FP inh, marked with its call; inhibition, %; compound at 20 µM; confirmation average;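 mean of two retest wells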
PABP FP inh retest: also measured in PABP FP inh; calls as there; inhibition, %; compound at 20 µM; confirmation repeats;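 mean of two retest wells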
MT1-MMP act inh RFP: second read-out of MT1-MMP act inh, no call of its own (marks repeat the call); RFP signal change, %; measured here: RFP expression control read;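 0 = vehicle wells; hits needed this value within 50% of zero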
Starred values were filed as active, the others as inactive; i = inactive; x = no result given; + = active, no number; & = joins results of further samples. Rows were taken by chance (roughly 2.9% active in at least one column).

Start of the data: the first 2 records, ahead of the listing:
SMILES	PABP FP inh	eIF4H FP inh	CSC inhib	MT1-MMP act inh	MT1-MMP act inh RFP	HIV Env fusion	Yeast UUG start	Rce1 inh	others
Cc1[nH]nc2c1C(c1c[nH]c3ccccc13)C(C#N)=C(N)O2 (configuration not stated)	2	-8	x	10	-6	-5	-21	i
CSc1ccc(C2=CC(=O)C[C@H](c3ccc(F)cc3)C2)cc1	x	x	21	8	4	7	-13	x

Main list, previewed entries included:
SMILES	PABP FP inh	eIF4H FP inh	CSC inhib	MT1-MMP act inh	MT1-MMP act inh RFP	HIV Env fusion	Yeast UUG start	Rce1 inh	others
Cc1[nH]nc2c1C(c1c[nH]c3ccccc13)C(C#N)=C(N)O2 (configuration not stated)	2	-8	x	10	-6	-5	-21	i
CSc1ccc(C2=CC(=O)C[C@H](c3ccc(F)cc3)C2)cc1	x	x	21	8	4	7	-13	x
NS(=O)(=O)c1ccc(CCNc2ccn3nc(-c4ccc(OCCN5CCOCC5)cc4)cc3n2)cc1	x	x	x	3	1	-11	0	x
CCCCCCCCCCCC(=O)N/N=C/c1ccco1	6	2	-5	0	-2	-32	2	i
COCCNCC1C(Oc2ccc(Cl)cc2)C(=O)N1c1ccccc1C (configuration not stated)	11	-8	-4	2	-3	1	x	i
CCCCn1c(N)c(N(CCOC)C(=O)COC(=O)COc2ccccc2C#N)c(=O)[nH]c1=O	x	x	-2	-3	8	7	-6	i
COc1ccc(-c2nc(CSCC(=O)N3CCN(c4cccc(C)c4)C(C)C3)c(C)o2)cc1OC (configuration not stated)	-14	-11	15	-20	-32	33	-2	i
COc1cc2c(cc1OC)C(C(=O)O)C(c1cc(Br)c(O)c(OC)c1)N(C)C2=O (configuration not stated)	5	-14	7	-8	1	x	20	i
CCOc1ccc(CN2CCN(c3cc(C)nc4c5c(C)cc(C)nc5nn34)CC2)cc1	2	9	x	x	x	x	x	i
Cc1cccc(C)c1-n1nnnc1SCc1nc(N)nc(N(C)C)n1	x	x	x	-11	-3	24	-26&-7	x
CC(C)(C)n1nnnc1CN1C2CCC1CC(NC(=O)Nc1ccccc1)C2 (configuration not stated)	8	0	-4	3	-5	-44	11	i
C#CCOCCOCCOCCNc1nc(N2CCN(C(=O)CCCCCCCCCCNC(=O)Cn3cc(CCCCCN)nn3)CC2)nc(N2CCN(C(=O)CCCCCCCCCCNC(=O)[C@@H](CCSC)n3cc(CCO)nn3)CC2)n1	x	x	-27	17	3	x	10	x
OC(COc1ccc(Br)cc1)CN1CCC(Cc2ccccc2)CC1 (configuration not stated)	-4	-10	-2	3	3	7	-6	i
COc1ccc(OC)c(NS(=O)(=O)c2ccc(SC)cc2)c1	32	-8	56	-5	-15	x	-12	i
O=C(CN1CCN(c2ccccc2F)CC1)NC(=O)NC1CCCCC1	x	x	-15	-2	-3	19	-9	x
Cc1ccc(-c2csc(NC(=O)C[n+]3cc(-c4ccc(C)cc4)n4c3CCC4)n2)cc1	-42	-7	9	1	-18	20	x	i
O=C(O)c1cc(-c2ccccc2)n(-c2ccccc2C(=O)O)n1	15	0	-6	-4	-2	-28	-16	i
O=C(/C=C/c1cn(-c2ccccc2)nc1-c1cccnc1)c1ccco1	-8	10	67	-8	-16	-80	x	i
CCOc1ccc(C(=O)NC(=S)Nc2ccc(NC(=O)C(C)C)cc2)cc1[N+](=O)[O-]	5	4	-14	0	3	3	x	i
CSc1ccc(S(=O)(=O)NCC(=O)OCC(=O)N(C)CC(=O)Nc2ccccc2Cl)cc1[N+](=O)[O-]	x	x	5	0	6	4	1	i
O=C(Nc1ccc(S(=O)(=O)N2CCOCC2)cc1)c1cccc([N+](=O)[O-])c1	-11	1	-11	3	-2	-11	-14	i
O=C(NC(Cc1ccccc1)C(=O)NCCc1ccccn1)c1ccccc1 (configuration not stated)	-2	-3	10	-1	3	0	-25	i
O=C(COc1ccc(Cl)cc1)N(Cc1ccc(F)cc1)C1CCS(=O)(=O)C1 (configuration not stated)	-4	-11	-7	-2	-2	5	-21	i
CCN1C[C@@H]2[C@@H]3C(=O)N(C)C(=O)[C@@H]3[C@](CC)(C1=O)N2C(=O)c1ccc(Cl)cc1	x	x	x	-1	0	1	-8	x
COc1ccc(NC2CCCN(C(=O)CCC(=O)c3ccc(F)cc3)C2)cc1 (configuration not stated)	0	-11	-17	1	-8	-3	-13	i
Cc1c(NS(=O)(=O)c2ccc(S(=O)(=O)c3ccccc3)s2)c(=O)n(-c2ccccc2)n1C	4	-4	-2	-2	4	0	x	i
Cc1ccc(S(=O)(=O)N/N=C\c2ccc(Cl)c([N+](=O)[O-])c2)cc1	8	20	3	-5	-1	x	-13	i
CCOc1cc(/C=N/NC(N)=O)ccc1OC(=O)c1ccc(C)cc1	9	8	-11	x	x	x	x	i
CCOC(=O)c1[nH]c(=O)[nH]c1CSc1nc(C)cc(C)n1	7	-17	7	-2	2	x	-3	i
N#Cc1ccc(NC(=O)COC(=O)CCc2ccc(S(=O)(=O)N3CCCCC3)cc2)cc1	-2	7	-18	2	2	-20	x	i
Oc1ccc(O)c(Cc2nc3ccccc3[nH]2)c1	-2	10	-8	-19	-1	3	x	i
CCCCn1nnnc1C(c1ccccc1OC(F)(F)F)N1CCN(C/C=C/c2ccccc2)CC1 (configuration not stated)	x	x	x	-16	-19	-55	-3	x
O=c1oc2ccccc2c(Nc2ccc(O)cc2)c1[N+](=O)[O-]	-1	-9	-10	-2	3	x	-28	i
CCOc1cc(/C=N/NC(=O)c2cccnc2)ccc1OC(=O)c1ccco1	-16	0	0	2	1	-9	-14	i
CCN(CC(=O)N1CCCC1)S(=O)(=O)c1ccc(Br)cc1	1	1	-18	2	2	6	-25	i
CN1CC(=O)N(C)c2nc(Br)n(C)c2C1=O	3	-4	-9	-3	5	x	-16	i
CCn1cc(Br)c(C(=O)Nc2cccc(SC)c2)n1	1	5	12	3	-1	x	4	i
CCCCc1nc(SCC(=O)Nc2cccc(Cl)c2)n[nH]1	-6	-9	-1	1	0	-10	-18	x
O=C(NC(C(=O)N/N=C/c1c2ccccc2cc2ccccc12)c1n[nH]c(=O)c2ccccc12)c1ccccc1 (configuration not stated)	-13	-3	-5	-12	-15	x	-19	i
COc1ccc(CN=C2NN=C(c3ccccc3)CS2)cc1	12	-6	6	-3	0	-29	x	i
CC(C)OCCCN(C)C1CCN(S(=O)(=O)c2ccc(-c3cc(C(F)(F)F)no3)s2)CC1	-2	-11	51	0	-1	5	9	i
COc1ccc(NC(=O)c2csc(C)c2)cc1OC	6	-2	-8	4	8	22	-15	i
CC(C)(C)[C@H]1COC(=O)[C@@H](Cc2ccc(F)cc2)CC/C=C/C[C@@H](CC(=O)N[C@@H](CO)Cc2ccccc2)C(=O)N1	x	x	-18	8	-6	-27	16	x
CC(NC(=O)CNC(=O)[C@@H]1Cc2ccccc2CN1)c1ccccc1 (some centres not stated)	-1	-6	-7	0	0	-3	-8	i
Cc1cccc(C(=O)Nc2ccc(CC(=O)O)cc2)c1	0	-10	-7	-10	-28	1	-5	i
COc1ccc(CCNC(=O)COC(=O)/C=C/c2cccs2)cc1	10	0	16	-4	-1	-3	x	i
COC(=O)C1CC(O)CN1C(=O)NC1CCCCC1 (configuration not stated)	1	-5	-2	x	x	1	x	i
COCCCNC(=O)c1oc2ccc(S(=O)(=O)N(C)C3CCCCC3)cc2c1C	5	-10	-3	9	3	-20	1	i

Filtered by structure: the compounds so far containing a CF3 group.
SMILES	PABP FP inh	eIF4H FP inh	CSC inhib	MT1-MMP act inh	MT1-MMP act inh RFP	HIV Env fusion	Yeast UUG start	Rce1 inh	others
CCCCn1nnnc1C(c1ccccc1OC(F)(F)F)N1CCN(C/C=C/c2ccccc2)CC1 (configuration not stated)	x	x	x	-16	-19	-55	-3	x
CC(C)OCCCN(C)C1CCN(S(=O)(=O)c2ccc(-c3cc(C(F)(F)F)no3)s2)CC1	-2	-11	51	0	-1	5	9	i

(cont.)
SMILES	PABP FP inh	eIF4H FP inh	CSC inhib	MT1-MMP act inh	MT1-MMP act inh RFP	HIV Env fusion	Yeast UUG start	Rce1 inh	others
COc1ccc(CNC(=O)C2(CC3CC(c4ccccc4)=NO3)CCN(C(=O)C3(C)CC3)CC2)cc1 (configuration not stated)	x	x	-3	1	-5	-17	-7	i
O=C(c1ccco1)N1CCN(S(=O)(=O)c2ccc(Br)cc2)CC1	2	1	-4	0	-1	-3	2	i
COc1ccc(NC(=O)CN(C)C(=O)c2cc(S(=O)(=O)N3CCCCCC3)ccc2OC)cc1	x	x	-8	-2	-4	x	-12	i
CC(C)Oc1ccc(C(CC(=O)NCc2ccco2)c2ccccc2)cc1 (configuration not stated)	56	-4	-16	x	x	x	-15	i	eIF4H FP inh retest=-7;PABP FP inh retest=7
CC(C)Cn1nc(-c2ccccc2)c2ccccc2c1=O	-21	-3	-6	-4	-5	2	15	i
COc1ccc(NS(=O)(=O)c2cc3c4c(c2)C(C)C(=O)N4CCC3)cc1 (configuration not stated)	x	x	-9	3	4	2	-2	i
Cc1ccc(C(=O)Nc2ncnc3sc4c(c23)CCCCC4)cc1	1	-10	10	6	2	2	x	i
CN(C)/C=C/C(=C\C(=O)C(F)(F)F)Nc1ccc(C(F)(F)F)cc1	4	11	9	-4	-1	4	x	i
O=C1CC(c2ccco2)CC(O)=C1C=Nc1cc(Cl)ccc1Cl (configuration not stated)	-4	104	-9	-7	6	11	-10	i	eIF4H FP inh retest=50;PABP FP inh retest=45
COc1ccc(-c2nc3ncccc3o2)cc1NC(=O)c1ccco1	6	-4	x	-1	4	-20	-11	+
COc1ccc2[nH]cc(CCNC(=O)c3ccc([N+](=O)[O-])cc3)c2c1	-1	10	3	6	-2	-8	x	i
CCOC(=O)c1c(NC(=O)C2CCCO2)sc(C)c1C (configuration not stated)	13	-22	3	0	-3	25	-13	i
CCOc1ccc(S(=O)(=O)NCCC(=O)NCc2ccccn2)cc1	x	x	x	2	1	-2	x	i
CCCc1cc(Nc2ccc(C)cc2)n2ncnc2n1	-3	0	-9	0	-6	6	3	i
S=C(Nc1cccnc1)N1CCCCC1	-2	4	-8	-2	-2	10	-22	i
C/C(=N\Nc1nc2ccccc2[nH]1)c1ccc2c(c1)OCO2	-1	0	x	x	x	-7	-20	i
CC1(C)CC[C@]2(C(=O)O[C@@H]3O[C@H](CO)[C@@H](O)[C@H](O)[C@H]3O)CC[C@]3(C)C(=CCC4[C@@]5(C)CC[C@H](O[C@@H]6O[C@H](C(=O)O)[C@@H](O[C@H]7OC[C@@H](O)[C@@H](O)[C@@H]7O)[C@H](O)[C@H]6O)C(C)(C)C5CC[C@]43C)[C@@H]2C1 (some centres not stated)	x	x	-11	-1	3	-29	26	x
COC(=O)c1cc(Sc2cccc(Cl)c2Cl)ccn1	-11	4	4	4	4	-6	x	i
COc1ccccc1NCc1nnc(-c2ccccc2)o1	0	-5	-21	1	0	6	-11	i
CC1Sc2ccccc2N(Cc2ccccc2)C1=O (configuration not stated)	x	x	x	-4	-1	0	-10	x
Cc1sc2nc3ccc(NCc4ccco4)nn3c(=O)c2c1C	25	24	-2	-2	-3	x	x	i
CCS(=O)(=O)N1CCN(C(=O)c2ccc3nc(C)c(N(C)C(=O)CCc4ccccc4)n3c2)CC1	x	x	x	5	9	-11	-6	x
O=C(Nc1ccc(S(=O)(=O)Nc2nccs2)cc1)c1cc(-c2ccccc2)nc2ccccc12	3	10	-10	2	-5	6	x	i
